BJeLR viability = BJeLR cell viability loss | AID 1554 | inhibition, % (no concentration beside the values) | 300,000 tested, 0.17% active | BJeLR (HRASV12) viability, CellTiter-Glo ATP luminescence, 48 h; reference of the scale not given here;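 active = replicate mean above 50%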;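 note: 50 nL library stock added to about 25 µL; numbers are from one replicate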
Sa ugtP lethal = compounds lethal to S. aureus RN4220 ugtP deletion mutant. OD600 growth, 16 h; some inactives read as strong as hits. growth inhibition, % (test concentration not listed). 330,000 tested, 0.54% active. AID 1259309;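 active = z-score under -3 and OD600 up to 0.15 on both plates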;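 note: plate controls were untreated wells for no effect and antibiotic for full effect; wells of about 80 µL received 100 nL stock; the first replicate is given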
PrP UTR inh = suppresses PrP 5' UTR mRNA reporter expression. cell-based PrP 5' UTR mRNA reporter, plate reader. inhibition, % (test concentration not listed). 340,000 tested, 0.35% active;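 active = every replicate at 50% or more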;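 note: 0 = median of the neutral control wells; tested in H4 reporter cells; numbers are from one replicate; inactives centre near -14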
Mtb hypoxia inh = reduces hypoxia-regulated biosensor signal in M. tuberculosis; M. tuberculosis hypoxia-regulated fluorescent reporter, fluorescence; 300,000 tested, 0.1% active; fluorescence inhibition, % (concentration not given with the values);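 active = 35 to 45% if threefold the growth effect, above 45% if 1.5-fold the growth effect; inactive = the rest, general growth blockers included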;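 note: wells of about 50 µL received 100 nL stock; 0% = vehicle wells and 100% = reference inhibitor wells; whole bacteria with a GFP reporter of the hypoxia response; strong numbers were not always called active; many hits fall short of the cut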
Sa RN4220 lethal = S. aureus RN4220 growth inhibition; OD600, 16 h; inhibition, % (no concentration beside the values); 330,000 tested, 0.33% active; AID 1259311;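 active = z-score of -3 or lower and OD600 up to 0.18 on both plates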;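 note: plate controls were untreated cells for no effect and reference antibiotic for full effect; stock transfer was 100 nL into about 80 µL; one replicate is shown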
Autofluor counter = counter-screen for toxin protease inhibitors: compound fluorescence; compound autofluorescence counterscreen, microsphere flow cytometry; active compounds read high; fluorescence intensity (test concentration not listed); 360,000 tested, 3.1% active;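 active = at least 3 SD above the mean of all compounds, about 16000 in these data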;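 note: 100 nL of 1 mM stock went into each well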
Mtb hypoxia inh growth = recorded beside Mtb hypoxia inh, whose call it bears; growth inhibition, %; measured here: M. tuberculosis growth (absorbance);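 0% = vehicle and 100% = reference antibiotic; read after six days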
An asterisk follows results filed as active; · = not tested or not shown. No enrichment for hits; 4% or so of the library scored in one or more.

SMILES | BJeLR viability | Sa ugtP lethal | PrP UTR inh | Mtb hypoxia inh | Mtb hypoxia inh growth | Sa RN4220 lethal | Autofluor counter
Cc1cc(=O)oc2cc(OC(C)C(=O)Nc3ccc(N4CCOCC4)cc3)ccc12 (centres undefined) | -21 | -3 | -39 | -1 | 6 | 6.3 | 21958*
Cc1ccccc1-c1nnc(SCC(=O)c2c(N)n(C3CC3)c(=O)[nH]c2=O)o1 | · | 1 | -16 | 6 | -5 | 3.4 | 9137
CCOC(=O)N1CCN(S(=O)(=O)N2CCCC(C(=O)NCCc3ccccc3)C2)CC1 (centres undefined) | 10 | 4 | -26 | -3 | -7 | 4.2 | 5517
O=C(Nc1ncccn1)C1CCCCC1 | -6 | 2 | 2 | 10 | 0 | 0.4 | 4506
O=C(CCSc1ccc(Cl)cc1)N1CCOCC1 | 1 | 9 | -21 | 5 | 10 | 5.6 | 10041
COCCn1c(Cc2ccccc2)nnc1SCC(=O)N1CCCCC1C (centres undefined) | 8 | 5 | -11 | -1 | 7 | -2.5 | 3747
CCNC(=S)NNC(=O)c1cccnc1 | -5 | 6 | -5 | -1 | -3 | 1.1 | 6606
N/C(=N\OC(=O)c1ccoc1)c1ccc(Br)cc1 | 1 | 12 | -82 | 9 | 16 | 2.1 | 5488
Cc1[nH]c2ccccc2c1C(=O)COC(=O)c1ccccc1O | · | -3 | 29 | 10 | 3 | 3.0 | 3305
Cc1cc(C(F)(F)F)n2ncc(-c3ccccc3)c2n1 | -1 | 14 | -24 | 13 | 5 | 9.7 | 8326
Cc1ccc(N/C=C2\CCCCC2=O)c(C)c1 | -2 | -2 | -13 | 1 | 0 | 10 | 2188
Cc1ccc(-c2nnc3n2N=C(c2ccc(Br)cc2)CS3)cc1 | -12 | 0 | -52 | · | · | 12 | 5697
O=C(COC(=O)c1ccncc1)NCCCc1ccccc1 | · | -3 | -11 | 3 | 1 | 1.1 | 4451
COc1cccc(OCc2nnc(SCC(=O)NCc3ccco3)n2C)c1 | 5 | -5 | -18 | 2 | 5 | 1.6 | 4250
Cc1ccc(C)c(NC(=O)CCCCCN2C(=O)[C@@H]3Cc4ccccc4CN3C2=O)c1 | -12 | 6 | -8 | 1 | -7 | 3.9 | 4263
O=C(NCCSCc1ccco1)c1ccc(=O)[nH]c1 | 3 | 0 | -29 | 7 | 6 | 3.3 | 3253
COc1ccc(N2C(=O)CC(N3CC=C(c4ccccc4)CC3)C2=O)cc1 (centres undefined) | -2 | -2 | -14 | · | · | 2.5 | 6462
CCOC(=O)c1cccc(NC(=O)CSc2nnc(COc3ccc(Cl)cc3)o2)c1 | -3 | -4 | -21 | 11 | 4 | 7.5 | 9734
O=C(NCN1CCc2ccccc2C1)c1ccccc1 | 13 | 7 | -12 | -5 | -2 | 5.0 | 17046*
O=C(CCCN1C(=O)c2ccccc2C1=O)Oc1ccc(F)cc1 | -1 | 4 | 5 | 7 | 0 | 0.4 | 23354*
O=S(=O)(c1ccc(F)cc1)N(CCO)CC(O)Cn1c2ccccc2c2ccccc21 (centres undefined) | 3 | -15 | -6 | 3 | 2 | 2.5 | 16893*
O=C(NN=Cc1cccc(Cl)c1)C(c1ccncc1)N1CCOCC1 (centres undefined) | · | 1 | · | 3 | 5 | 1.1 | ·
CCOC(=O)N1CCN(c2ccc(S(=O)(=O)N3CCC(C)CC3)cc2[N+](=O)[O-])CC1 | · | -1 | 2 | -5 | 6 | -0.1 | 4054
O=c1[nH]cc(S(=O)(=O)N2CCN(c3cccc(C(F)(F)F)c3)CC2)c(=O)[nH]1 | 5 | 25 | -25 | 3 | 4 | -4.5 | 5461
COc1ccc(CN2CCCC(C(=O)N3CCCC3)C2)cc1 (centres undefined) | 0 | 2 | -16 | 14 | 2 | 3.6 | 10497

Looked up above.
Cc1[nH]c2ccccc2c1C(=O)COC(=O)c1ccccc1O in Sa ugtP lethal: -3
O=C(NCCSCc1ccco1)c1ccc(=O)[nH]c1 in PrP UTR inh: -29

Following part:
SMILES | BJeLR viability | Sa ugtP lethal | PrP UTR inh | Mtb hypoxia inh | Mtb hypoxia inh growth | Sa RN4220 lethal | Autofluor counter
CC(=O)NC1CCN(C(=O)N2CCCC2)CC1 | 0 | -3 | -9 | 8 | 8 | 2.3 | 3921
CC(CC1CC(C)(C)OC1=O)C(=O)Nc1ccc([N+](=O)[O-])cc1 (centres undefined) | -11 | 6 | -7 | 7 | 7 | 4.5 | 2313
O=C(NC(Cc1ccccc1)C(=O)O)/C(=C\c1ccccc1)NC(=O)c1ccc(Br)o1 (centres undefined) | 10 | 7 | 1 | -2 | -5 | 1.4 | 4553
O=C(Nc1cc2c(cc1Cl)OCCO2)c1ccco1 | -2 | 9 | -42 | 0 | -1 | 5.5 | 4259
CCOc1ccc(NC(=O)COC(=O)CN2CCCCCC2=O)cc1 | · | 7 | -13 | -1 | 10 | 2.4 | 4035
CCOc1ccccc1N1CCN(CC(=O)Nc2ccccc2C(=O)NC2CC2)CC1 | · | 4 | -7 | -5 | -3 | 5.3 | 2804
C=CCOc1ccccc1CN1CCC(n2nccc2NC(=O)C2CC2)CC1 | -4 | 16 | -5 | 0 | -4 | 6.0 | 4308
CC(C)CCSc1nc2c(c(=O)[nH]c(=O)n2C)n1CCc1ccccc1 | 0 | -7 | 5 | · | · | 2.8 | 2903
CC(C)OCCCNC(=O)CN1C(=O)COc2ccc(S(=O)(=O)N3CCCCCC3)cc21 | 6 | -2 | -18 | · | · | 0.2 | 6335
CCOC(=O)c1sc(N(Cc2ccccc2)C(=O)COC(=O)c2ccccc2O)nc1C | 7 | · | -16 | · | · | · | 1967
C[C@]12C=CC(=O)C=C1CC[C@@H]1C2=CC[C@]2(C)[C@@H](C(=O)CN3CCN(c4cc(N5CCCC5)nc(N5CCCC5)n4)CC3)CC[C@@H]12 | 2 | · | -7 | · | · | · | 9965
Oc1c(Cl)cc(Cl)cc1CNc1ccc(Br)cn1 | -3 | -22 | -24 | -11 | 2 | -5.6 | 3770
C/C(=N\N1CCN(C2c3ccccc3-c3ccccc32)CC1)c1ccco1 | -5 | · | -14 | · | · | · | 2553
CCOC(=O)N1CCN(C(=O)c2c[nH]c3ccc(S(=O)(=O)N(C)c4cccc(C)c4)cc3c2=O)CC1 | 1 | 4 | -22 | 9 | 13 | 4.1 | 5666
CCOC(=O)c1sc(=S)n(-c2cccc(C(F)(F)F)c2)c1SC | -8 | 5 | -15 | -2 | -5 | 1.2 | 9353
CCOc1ccc2nc(N/C(N)=N/C(=S)Nc3ccc(C)c(C)c3)nc(C)c2c1 | -7 | -9 | -11 | 0 | 7 | 9.4 | 2382
CCCN(c1ccccc1C(=O)O)S(=O)(=O)c1ccc2c(c1)n(C)c(=O)n2C | 9 | -1 | -1 | 12 | 5 | -0.4 | 3624
Cc1ccc(CNC(=O)COC(=O)COc2ccc(C#N)cc2)cc1 | · | 9 | -9 | 6 | -11 | 1.0 | 8559
CC1CCCCC1NC(=S)NC(=O)c1ccccc1Br (centres undefined) | -3 | 34 | -12 | -3 | -5 | 4.5 | 1929
CC(C)OP(=O)(c1ccccc1)c1ccccc1 | 1 | 10 | -8 | 0 | -3 | 4.7 | 6597
Cc1ccccc1NC(=O)C1CCN(S(=O)(=O)c2ccc3c(c2)NC(=O)C(C)S3)CC1 (centres undefined) | -6 | 4 | -4 | 6 | 12 | -0.1 | 5632
Fc1cnc(N2CCc3ccccc32)nc1N1CCc2ccccc21 | 2 | -4 | -46 | 13 | 13 | 1.9 | 16473*
CCOc1ccc(C(=O)Nc2ccc(S(=O)(=O)N3C[C@@H]4C[C@@H](C3)c3cccc(=O)n3C4)cc2)cc1 | · | 3 | -10 | -11 | -5 | 2.8 | 5579
Cc1ccccc1C(=O)NCCCNC(=O)c1ccccn1 | 4 | 5 | -6 | 5 | 9 | 8.2 | 3415
COc1cccc(Oc2coc3cc(OC(=O)N4CCOCC4)ccc3c2=O)c1 | 13 | 4 | -13 | 0 | 13 | 1.6 | 2179
SMILES | BJeLR viability | Sa ugtP lethal | PrP UTR inh | Mtb hypoxia inh | Mtb hypoxia inh growth | Sa RN4220 lethal | Autofluor counter
Cc1cccc(N(C)S(=O)(=O)c2ccc3[nH]c(=O)c(=O)[nH]c3c2)c1 | -7 | -3 | -11 | -11 | 0 | -3.2 | 16965*
COc1cc(NS(=O)(=O)c2ccc(NC(=O)C34CC5CC(CC(C5)C3)C4)cc2)ncn1 | -2 | 5 | -16 | 16 | 16 | 5.0 | 3322
OCCN1CCN(C2Cc3cc(Cl)ccc3Sc3ccc(Cl)cc32)CC1 (centres undefined) (tested in a mixture with another compound) | -12 | 69 | -39 | · | · | 3.2 | 4359
CCCN1CNC(=S)N(c2cc(C)ccc2C)C1 | 2 | -2 | 2 | -14 | -9 | 0.5 | 15568
O=C(CSc1nc(-c2ccccc2)c(-c2ccccc2)o1)NCCCO | 13 | 2 | -3 | 4 | 1 | -1.5 | 4371
Nc1cc(Cl)cc(C(=O)O)c1Cl | · | 4 | -5 | -3 | -1 | 4.4 | 5969
CCOc1cccc(NC(=O)c2cccc(F)c2)c1 | -5 | 1 | -39 | 9 | 14 | 12 | 4069
CCC(C)Sc1ccc(C2N[C@@](CC(C)C)(C(=O)OC)C3C(=O)N(C)C(=O)C23)cc1 (some centres undefined) | · | 4 | · | 22 | 7 | -0.8 | ·
CC(=O)c1cn(CCCOc2ccccc2)c2ccccc12 | 3 | 5 | -17 | 6 | 1 | -2.0 | 2678
COC(=O)c1sc(NC(=O)c2ccc([N+](=O)[O-])o2)c(C#N)c1C | 11 | · | -14 | · | · | · | 3222
CCc1nnc(NS(=O)(=O)c2ccc(NCc3cc(Cl)cc(Cl)c3O)cc2)s1 | -4 | 0 | -6 | 0 | 3 | -3.1 | 6589
Cc1cc2occ(CC(=O)N(CC(C)C)c3c(N)n(Cc4ccccc4)c(=O)[nH]c3=O)c2cc1C | 7 | -1 | -8 | 7 | -3 | -0.7 | 7082
COC(=O)c1cccc(Cn2nc(C)c([N+](=O)[O-])c2C)c1 | 0 | 0 | 0 | 3 | 7 | 2.5 | 4151
CC(C)C(=O)NC(=S)Nc1ccc(S(=O)(=O)NC2CCCCC2)cc1 | 2 | 27 | -20 | 7 | -6 | 10 | 5552
CCc1nnc(NC(=O)C2CCCN2S(=O)(=O)c2ccc3c(c2)OCCO3)s1 (centres undefined) | · | 3 | · | 3 | 9 | 1.8 | ·
CC(CC1CC(C)(C)OC1=O)=NNc1nc(-c2ccccc2)cs1 (centres undefined) | · | -5 | · | 16 | 0 | 2.2 | ·
CCOC(=O)C1CCCN(c2c(Nc3cc(C)cc(C)c3)c(=O)c2=O)C1 (centres undefined) | 10 | 9 | 2 | 3 | 7 | 2.9 | 6087
COc1cccc(NC(=O)c2ccc(-c3ccc([N+](=O)[O-])cc3)o2)c1 | -5 | -18 | -39 | 6 | 5 | -0.1 | 4456
CC(NS(=O)(=O)c1ccccc1)C(=O)NC1CCCC1 (centres undefined) | -2 | -5 | 3 | -9 | 5 | 0.8 | 5726
COc1c(F)c(F)c(C(=O)Nc2ccc(-c3nc4ccccc4[nH]3)cc2)c(F)c1F | 1 | 10 | -9 | 4 | 4 | 1.9 | 4673
O=C(NCc1cccnc1)C(=O)NN=Cc1ccccc1[N+](=O)[O-] | · | 11 | · | 4 | 22 | 2.9 | ·
Cc1ccccc1-c1ccc(=O)n(CC(=O)Nc2ccc(S(=O)(=O)N(C)C)cc2)n1 | -2 | 4 | -31 | -5 | -4 | 1.5 | 4562
NC(=O)N\N=C/C=C/C=C/c1ccc(F)cc1 | 5 | · | -2 | · | · | · | 3625
COc1ccc(S(=O)(=O)NNC(=O)C23CC4CC(CC(C4)C2)C3)cc1 | -5 | -2 | -11 | 7 | -3 | 1.0 | 6021

Among those listed so far, these contain two or more sulfur atoms.
SMILES | BJeLR viability | Sa ugtP lethal | PrP UTR inh | Mtb hypoxia inh | Mtb hypoxia inh growth | Sa RN4220 lethal | Autofluor counter
CCOC(=O)c1sc(=S)n(-c2cccc(C(F)(F)F)c2)c1SC | -8 | 5 | -15 | -2 | -5 | 1.2 | 9353
Cc1ccccc1NC(=O)C1CCN(S(=O)(=O)c2ccc3c(c2)NC(=O)C(C)S3)CC1 (centres undefined) | -6 | 4 | -4 | 6 | 12 | -0.1 | 5632
CCc1nnc(NS(=O)(=O)c2ccc(NCc3cc(Cl)cc(Cl)c3O)cc2)s1 | -4 | 0 | -6 | 0 | 3 | -3.1 | 6589
CC(C)C(=O)NC(=S)Nc1ccc(S(=O)(=O)NC2CCCCC2)cc1 | 2 | 27 | -20 | 7 | -6 | 10 | 5552
CCc1nnc(NC(=O)C2CCCN2S(=O)(=O)c2ccc3c(c2)OCCO3)s1 (centres undefined) | · | 3 | · | 3 | 9 | 1.8 | ·

Screening data deposited in PubChem by several laboratories.
